Screens from PubChem.
nsP2pro primary: Primary qHTS for inhibitors of NSP2Pro chikungunya virus (CHIKV); FRET peptide cleavage, nsP2pro, fluorescence 1 h; Potency, µM (series often up to 24.9 µM), inactives show at the top dose activity change, negative = inhibition, most hits filed as inhibitors; 31,000 compounds, 1.1% hits; AID 1964107, 2024; active means well fitted inhibition curve with a large enough effect; inconclusive means small, poorly fitted or top-dose-only effect; inactive means no such curve, though single readings can be large or run the other way; note: nearly all actives have a fitted effect of over 60% in size; a reference inhibitor and vehicle were the controls
Target sequence (Q8JUX6 whole entry, looked up): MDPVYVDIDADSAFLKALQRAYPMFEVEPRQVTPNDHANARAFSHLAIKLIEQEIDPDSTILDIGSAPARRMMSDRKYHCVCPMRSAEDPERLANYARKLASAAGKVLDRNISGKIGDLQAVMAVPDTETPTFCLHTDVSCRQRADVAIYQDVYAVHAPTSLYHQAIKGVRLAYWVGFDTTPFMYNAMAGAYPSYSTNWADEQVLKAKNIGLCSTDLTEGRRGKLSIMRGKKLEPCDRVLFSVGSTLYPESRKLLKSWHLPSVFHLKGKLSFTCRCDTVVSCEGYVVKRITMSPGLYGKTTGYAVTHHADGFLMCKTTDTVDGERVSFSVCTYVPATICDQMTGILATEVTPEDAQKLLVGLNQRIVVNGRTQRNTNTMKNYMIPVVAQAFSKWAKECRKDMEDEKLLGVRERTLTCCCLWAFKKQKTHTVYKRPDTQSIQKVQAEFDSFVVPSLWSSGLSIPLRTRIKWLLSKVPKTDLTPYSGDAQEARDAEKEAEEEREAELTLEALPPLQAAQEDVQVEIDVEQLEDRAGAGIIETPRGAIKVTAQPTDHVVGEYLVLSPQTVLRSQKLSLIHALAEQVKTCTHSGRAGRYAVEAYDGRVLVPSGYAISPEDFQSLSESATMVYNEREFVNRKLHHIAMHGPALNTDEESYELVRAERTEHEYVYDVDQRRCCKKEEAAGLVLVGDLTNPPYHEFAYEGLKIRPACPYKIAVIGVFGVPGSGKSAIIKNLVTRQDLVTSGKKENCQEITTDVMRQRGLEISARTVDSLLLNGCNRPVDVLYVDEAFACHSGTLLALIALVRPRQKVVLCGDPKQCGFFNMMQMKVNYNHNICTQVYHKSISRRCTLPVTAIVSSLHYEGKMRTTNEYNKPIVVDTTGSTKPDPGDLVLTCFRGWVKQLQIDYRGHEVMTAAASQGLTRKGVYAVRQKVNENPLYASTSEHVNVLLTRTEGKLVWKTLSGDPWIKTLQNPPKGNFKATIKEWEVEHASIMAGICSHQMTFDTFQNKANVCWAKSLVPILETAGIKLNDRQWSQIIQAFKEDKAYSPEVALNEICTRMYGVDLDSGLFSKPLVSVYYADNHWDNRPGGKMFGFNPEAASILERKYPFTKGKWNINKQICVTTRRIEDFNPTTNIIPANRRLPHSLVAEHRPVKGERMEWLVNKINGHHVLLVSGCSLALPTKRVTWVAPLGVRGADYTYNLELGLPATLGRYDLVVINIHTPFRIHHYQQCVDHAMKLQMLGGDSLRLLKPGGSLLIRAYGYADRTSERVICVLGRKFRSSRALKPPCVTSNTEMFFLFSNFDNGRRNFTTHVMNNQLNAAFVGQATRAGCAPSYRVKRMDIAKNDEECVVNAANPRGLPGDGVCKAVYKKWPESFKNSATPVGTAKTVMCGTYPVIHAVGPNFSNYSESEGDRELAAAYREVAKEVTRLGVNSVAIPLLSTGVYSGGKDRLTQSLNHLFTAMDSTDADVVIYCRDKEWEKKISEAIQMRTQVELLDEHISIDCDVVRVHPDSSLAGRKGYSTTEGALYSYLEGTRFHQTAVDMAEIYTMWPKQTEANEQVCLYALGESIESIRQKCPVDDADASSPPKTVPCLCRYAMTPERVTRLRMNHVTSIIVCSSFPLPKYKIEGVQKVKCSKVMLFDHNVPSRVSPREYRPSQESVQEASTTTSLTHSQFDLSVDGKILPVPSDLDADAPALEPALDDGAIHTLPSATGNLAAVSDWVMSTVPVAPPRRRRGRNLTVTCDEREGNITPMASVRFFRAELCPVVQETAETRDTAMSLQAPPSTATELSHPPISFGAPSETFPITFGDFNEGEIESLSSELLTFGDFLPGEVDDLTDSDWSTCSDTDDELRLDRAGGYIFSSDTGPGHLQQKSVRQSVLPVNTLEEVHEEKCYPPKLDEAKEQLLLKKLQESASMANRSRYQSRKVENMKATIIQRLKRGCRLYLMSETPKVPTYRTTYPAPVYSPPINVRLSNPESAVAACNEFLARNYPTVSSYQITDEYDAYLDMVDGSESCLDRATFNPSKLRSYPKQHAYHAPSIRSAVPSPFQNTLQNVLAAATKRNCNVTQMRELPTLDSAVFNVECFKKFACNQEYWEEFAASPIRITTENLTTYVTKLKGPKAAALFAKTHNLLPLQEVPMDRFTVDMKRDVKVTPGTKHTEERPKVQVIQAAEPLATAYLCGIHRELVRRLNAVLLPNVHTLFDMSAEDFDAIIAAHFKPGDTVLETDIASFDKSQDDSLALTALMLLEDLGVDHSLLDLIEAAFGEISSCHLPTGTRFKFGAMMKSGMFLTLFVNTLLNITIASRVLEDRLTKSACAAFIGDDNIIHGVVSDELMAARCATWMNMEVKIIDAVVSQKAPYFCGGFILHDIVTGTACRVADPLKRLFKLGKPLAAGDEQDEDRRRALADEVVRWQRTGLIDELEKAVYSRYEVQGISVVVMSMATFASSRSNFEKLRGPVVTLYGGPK
Active calls of the source: *; i = inactive; ? = inconclusive; & = joins results of further samples; ! = not active in a repeat; [ ] = dose if it differs, or a comment. % is set by controls: 0 for no effect and ±100 for the full control effect; potency is the fitted concentration of half-maximal effect. Not all compounds are listed; count on the stated rates, not on these rows.

SMILES	nsP2pro primary
O=C(OC1OC2COC(=O)c3cc(O)c(O)c(O)c3-c3c(cc(O)c(O)c3O)C(=O)OC(C2O)C1O)c1cc(O)c(O)c(O)c1 (stereo not drawn)	?
CC(=O)C12OC(C)(C)OC1CC1C3CCC4=CC(=O)C=CC4(C)C3(F)C(O)CC12C (stereo not drawn)	11%
O=P(O)(O)CP(=O)(O)O	-10%
Fc1ccccc1-c1nc(-c2ccc(-c3nn[nH]n3)cc2)no1	i
COc1cc(F)c(S(=O)(=O)N2CCN(S(=O)(=O)c3ccco3)CC2)c(F)c1	-1%
CCC1(N2CCN(C(=O)Nc3cc(C)ccc3OC)CC2)CCN(C(=O)C(C)C)C1 (stereo not drawn)	i
CNC(=O)c1ccc(-c2cnc3ncc(Cc4ccc5ncccc5c4)n3n2)cc1F	4%&-2%
Cc1ccc(NC(=O)CSc2nc3c(oc4ccccc43)c(=O)n2Cc2ccco2)cc1F	-16%
CC(C)(C)c1cc(C=C(C#N)C#N)cc(C(C)(C)C)c1O	10%
Cc1ccc(S(=O)(=O)Nc2ccccc2C(=O)Nc2nc(-c3ccccc3)cs2)cc1	-5%
C/C1=C/[C@@H](C)C/C=C/[C@H]2[C@@H]3O[C@]3(C)[C@@H](C)[C@H]3[C@H](Cc4c[nH]c5ccccc45)NC(=O)[C@]32C(=O)/C=C\C(=O)[C@@H]1O	?
O=C(c1cccc(C(F)(F)F)c1)N1CC(CO)C2(CCNCC2)C1 (stereo not drawn)	-4%
CSc1ncc2c(n1)-c1ccccc1N(Cc1ccccc1C)S2(=O)=O	-19%
Cc1cc(CC(=O)N2C[C@@H](COCC3CC3)[C@H](c3ccncc3)C2)on1	-10%
Cc1cc(CNC(=O)Cc2nonc2C)c2[nH]c(-c3ccccc3)c(C)c2c1	-7%
CN1CCN(c2nn3c(=O)c4ccccc4nc3s2)CC1	i
Cc1cccc(N2CCN(C(c3ccccc3)c3nnc(-c4ccccc4F)o3)CC2)c1C (stereo not drawn)	-3%
C=CCc1cc(OC)c(OC(C)C(O)c2ccc(O)c(OC)c2)c(OC)c1 (stereo not drawn)	-1%
Cc1cc(N[S+](=O)([O-])c2ccc(NC(=O)Cc3ccc4nccnc4c3)cc2)no1	i
CCOc1ccccc1NC(=O)N1CCN(C)c2ncccc21	-16%
O=C(Cc1ccc(C(F)(F)F)cc1)N1CC(COc2ccccc2)C2(C1)CN(C(=O)c1cn[nH]c1)C2 (stereo not drawn)	i
CNNCc1ccc(C(=O)NC(C)C)cc1	-4%
CC(O)/C=C/C1(O)C2(C)COC1(C)CC(O)C2 (stereo not drawn)	10%
COc1ccc(C2C(C(=O)O)C(C(=O)O)C2c2ccc(OC)cc2O[C@@H]2O[C@H](CO)[C@@H](O)[C@H](O)[C@H]2O)c(O[C@@H]2O[C@H](CO)[C@@H](O)[C@H](O)[C@H]2O)c1 (stereo partly drawn)	59%[activator][10 µM]
Cc1cc2c(cc1NS(=O)(=O)c1cccc(C#N)c1)n(C)c(=O)c(=O)n2C	-26%
CCc1ccc(CNC(=O)c2cc(-c3ccc(Cl)s3)nc3ccccc23)cc1	-21%
CCN(CC)CCCC(C)n1c(-c2ccccc2)nc2c(NCCOC)nc(C)nc21 (stereo not drawn)	4%
COc1cc(-c2nc3cccc(C)n3c2Nc2ccc3c(c2)OCCO3)ccc1O	16%
C[C@@H]1CN(C(=O)c2ccc(Cn3cnnn3)cc2)C[C@@]1(O)C1CCC1	-3%
Cc1cc2c(c(=O)[nH]1)OC(C(O)CC(C)C)O2 (stereo not drawn)	23%
CCN1C[C@]2(COC)CC[C@H](O)[C@@]34C5C[C@@H]6[C@@H](OC)C[C@@](OC(C)=O)(C5[C@@H]6OC(C)=O)[C@H]([C@H](OC)C23)[C@@H]14 (stereo partly drawn)	19%[10 µM]
C=CCN1CCc2nc(N)sc2CC1	-15%
COc1ccccc1-c1ncnn1-c1sc2c(c1C#N)CCCCC2	?
CN(CC1CCOCC1)S(=O)(=O)c1ccc(Cl)s1	0%
FC1(F)C[C@@H](c2nc(C3CC3)no2)N(Cc2ccco2)C1	-11%
O=C(Nc1ccc(OC(F)(F)F)cc1)c1cc(-c2ccc(Cl)cc2)on1	-15%
C#C[C@]1(O)C=C[C@H]2[C@@H]3CCC4=CC(=O)CC[C@@H]4[C@H]3CC[C@@]21CC	-1%
N#Cc1ccc(NS(=O)(=O)c2ccc(NC(=O)Cc3ccc(Cl)c(Cl)c3)cc2)cc1	?
CCOc1ccccc1NC(=O)C1CCN(S(=O)(=O)c2c(C)noc2/C=C/c2ccco2)CC1	?
Cc1cccc(N2CCN(C(=O)c3cnc(N4CCCC4)nc3C)CC2)c1C	-19%
CCC(=O)N1CCc2c(C(=O)N3CCCCC3)cccc21	i
CCOC(=O)c1ccc(NC(=O)c2cc3sccc3n2Cc2ccc(Cl)cc2)cc1	-25%
COCCc1noc(-c2ccc(N(C)Cc3ncc(C)[nH]3)nc2)n1	i
CC1CCCN(c2ncnc3c2nnn3C)C1 (stereo not drawn)	-18%
O=C(O)Cc1c[nH]c2ccc(O)cc12	?
Cc1nnc2n1CCC(N(C)S(=O)(=O)c1cccnc1)CC2 (stereo not drawn)	5%
CC(=O)N1CCN(C(=O)c2ccc3oc(-c4ccncc4Cl)nc3c2)CC1	?
CC(=O)c1ccc(N2CCN(C(=O)CCCCn3c(=O)[nH]c4ccccc4c3=O)CC2)cc1	-13%
CCC1CCCCN1CCCNC(=O)c1c(C)oc2ncn(CC(C)C)c(=O)c12 (stereo not drawn)	-16%
COc1ccc(-c2nnc(SC(C)C(=O)O)o2)cc1 (stereo not drawn)	-27%

Reformatted in markdown: entries from further up
| smiles | nsP2pro primary |
| --- | --- |
| C#C[C@]1(O)C=C[C@H]2[C@@H]3CCC4=CC(=O)CC[C@@H]4[C@H]3CC[C@@]21CC | -1% |
| N#Cc1ccc(NS(=O)(=O)c2ccc(NC(=O)Cc3ccc(Cl)c(Cl)c3)cc2)cc1 | ? |
| CCOc1ccccc1NC(=O)C1CCN(S(=O)(=O)c2c(C)noc2/C=C/c2ccco2)CC1 | ? |
| Cc1cccc(N2CCN(C(=O)c3cnc(N4CCCC4)nc3C)CC2)c1C | -19% |
| CCC(=O)N1CCc2c(C(=O)N3CCCCC3)cccc21 | i |
| CCOC(=O)c1ccc(NC(=O)c2cc3sccc3n2Cc2ccc(Cl)cc2)cc1 | -25% |
| COCCc1noc(-c2ccc(N(C)Cc3ncc(C)[nH]3)nc2)n1 | i |
| CC1CCCN(c2ncnc3c2nnn3C)C1 (stereo not drawn) | -18% |
| O=C(O)Cc1c[nH]c2ccc(O)cc12 | ? |
| Cc1nnc2n1CCC(N(C)S(=O)(=O)c1cccnc1)CC2 (stereo not drawn) | 5% |
| CC(=O)N1CCN(C(=O)c2ccc3oc(-c4ccncc4Cl)nc3c2)CC1 | ? |
| CC(=O)c1ccc(N2CCN(C(=O)CCCCn3c(=O)[nH]c4ccccc4c3=O)CC2)cc1 | -13% |
| CCC1CCCCN1CCCNC(=O)c1c(C)oc2ncn(CC(C)C)c(=O)c12 (stereo not drawn) | -16% |
| COc1ccc(-c2nnc(SC(C)C(=O)O)o2)cc1 (stereo not drawn) | -27% |

(next part)
SMILES	nsP2pro primary
COc1ccc(NC(=O)C[C@@H]2C[C@@H](C(C)C)[C@H](CC#N)C=C2C)cn1	2%[39.2 µM]
N#Cc1cccc(S(=O)(=O)Nc2cccn3ncnc23)c1	2%
O=C(Cn1nc(N2CCN(c3ccccc3)CC2)ccc1=O)NCc1ccccc1F	-7%
CN(Cc1cccnc1)C(=O)c1n[nH]c2c1CN(Cc1cccnc1)CC2	0%
COC(=O)c1cc(F)c(S(=O)(=O)N2CCN(S(=O)(=O)c3ccc4c(c3)OCCO4)CC2)cc1F	-12%
CCOC(=O)c1ccc(NC(=O)Cc2ccc(-n3c(CC)nc4cccnc43)cc2)cc1	0%
CCc1cc(C(=O)N2CCC(n3nccc3NC(=O)CCOc3ccccc3)CC2)no1	4%
CCC(C)Sc1c(C(C)C)cnc2c1c(=O)n(C)c(=O)n2C (stereo not drawn)	?
O=C(NCc1ccc(F)c(F)c1)c1ccc2nnc(-c3cc[nH]c3)n2c1	5%
CCC1CN(C(=O)N2CCC(C(=O)NCc3cccc(F)c3)CC2)c2cc(C)ccc2O1 (stereo not drawn)	-10%
COc1ccc(-n2c(=O)c3c(C)c(C)sc3n(Cc3ccc(F)cc3)c2=O)c(OC)c1	-22%
COC(=O)C1=CO[C@@H](O[C@@H]2O[C@H](CO[C@@H]3O[C@H](COC(=O)/C=C/c4ccc(O)cc4)[C@@H](O)[C@H](O)[C@H]3O)[C@@H](O)[C@H](O)[C@H]2O)[C@@H]2C(CO)=CC[C@H]12	-11%[10 µM]
CCN(CC)C(=S)SSC(=S)N(CC)CC	2.5µM*!
CC(=O)Nc1ccc(Nc2ncnc3c2c(-c2ccccc2)cn3-c2ccc(C)c(Cl)c2)cc1	-15%
COc1ccc(CNC(=O)CCC(=O)N2CC3CCCN3c3ccccc32)c(OC)c1 (stereo not drawn)	-19%
COc1ccccc1-c1nc2nccc(-c3cc(OC)c(OC)c(OC)c3)n2n1	i
O=c1c2ccccc2nc2sc(Nc3ccc4c(c3)OCO4)nn12	i
O=C(CN1C(=O)N/C(=C\c2cccn2-c2cccc(C(=O)O)c2)C1=O)Nc1ccc(F)cc1	?
C=CCc1ccccc1OCCN(C)Cc1ccccc1C(=O)O	-7%
CCC(NC(=O)Nc1cc(Cl)ccc1OC)c1c(-n2cccc2)sc2c1CCN(C)C2 (stereo not drawn)	22%

Given with bars between the fields: entries from further up.
molecule | nsP2pro primary
COc1ccccc1-c1nc2nccc(-c3cc(OC)c(OC)c(OC)c3)n2n1 | i
CC(=O)Nc1ccc(Nc2ncnc3c2c(-c2ccccc2)cn3-c2ccc(C)c(Cl)c2)cc1 | -15%

The results go on.
SMILES	nsP2pro primary
Brc1ccc(CN2CCc3nc(N4CCN(c5ncccn5)CC4)ncc3C2)cc1	33%[activator]
COc1cccc(-c2cc(C(F)(F)F)nc(-n3nc(C)c(Br)c3C)n2)c1	-27%
O=C(OCC#CCSc1nnc(-c2cccc3ccccc23)o1)c1cccc(C(F)(F)F)c1	5%
CCc1cccc(NC(=O)C2CCN(S(=O)(=O)c3ccc(Br)s3)CC2)c1	-21%
COCCOCC(=O)N1CCCN(Cc2ccncc2)C(c2ccccc2)CC(=O)NCC1 (stereo not drawn)	4%
O=C(CN1CCOC1=O)N1CCn2nc(C(O)Cc3ccccc3)cc2C1 (stereo not drawn)	-5%
C=C1C/C(=C\C=C2/CCC[C@]3(C)[C@@H]([C@H](C)/C=C/C(C)C(C)C)CC[C@@H]23)[C@@H](O)C[C@@H]1O (stereo partly drawn)	-7%
CCc1cccc(NS(=O)(=O)c2cc(-c3cnc(C)o3)ccc2OC)c1	0%
O=S(=O)(Cc1ccccc1)NC[C@H]1Cn2cc(-c3ccccc3)nc2CO1	-8%[39.2 µM]
CC1=CC2/C=C(\C)CCCC(O)/C=C/C(=O)OC23C(=O)NC(CC(C)C)C3C1C (stereo not drawn)	-14%
COc1ccccc1-c1cccc(-c2c(O)c3cc(C#N)c(Cl)cc3[nH]c2=O)c1	i
O=c1n(Cc2ccccc2)nc2n1-c1ccccc1OC2	-16%
CN(C)C[C@@H]1CN(c2ncccn2)C[C@H]1NS(=O)(=O)Cc1ccc(F)cc1	-12%
CCOC(=O)c1cnc(NCc2ccccc2OC)c2ccccc12	6%
CCc1ccc(NC(=O)N2CCC(N3CCN(Cc4ccc(C)cc4)C(=O)C3=O)CC2)cc1	-24%
COc1ccc(N(C(=O)c2ccccc2C)S(=O)(=O)c2ccc(Cl)cc2)cc1	-23%
CCCN(CCC)C(=O)C1CCN(c2cc(C)nc3c(-c4ccc(Cl)cc4)c(C)nn23)CC1	-24%
O=C(c1ccnc(-c2ccncc2)c1)N1CCCC1	i
O=C(COc1ccc(F)cc1)Nc1ccc(S(=O)(=O)N(Cc2ccccc2)c2ccccc2)cc1	-24%
CCOc1c(Cl)cc(C(=O)N(Cc2ccc(N(C)C)cc2)Cc2ccco2)cc1Cl	-10%
O=C(O)c1ccc2c(c1)C(=O)N([C@H](Cc1ccc(-c3ccccc3)cc1)C(=O)O)C2=O	i
O=S(=O)(c1ccccc1)c1nc(-c2cccs2)oc1N1CCCCC1	-14%
NC(=O)OCC(O)COc1ccc(Cl)cc1 (stereo not drawn)	-7%
CCn1cc(CN2CCC(N3C(=O)C4(CCCCC4)C3c3ccncc3)CC2)cn1 (stereo not drawn)	i
COC(=O)CSc1nc2c(cnn2-c2ccc(F)cc2)c(=O)[nH]1	-11%
COc1cccc(NCc2ccc(O)c3ncccc23)n1	i
Nc1ccc(S(=O)(=O)Nc2cnc3ccccc3n2)cc1	16%
NC(=O)C1CCN(c2ncc(-c3ccc(Br)cc3)s2)CC1	4%
CN(C)CCN(Cc1cccs1)c1ccccn1	-3%
Cc1cc(C(=O)N2CCC(Cc3nc(-c4ccccc4)n[nH]3)C2)n(C)n1 (stereo not drawn)	-3%
CCCC(=O)N1Cc2ccccc2NC(=O)C12CCNC2 (stereo not drawn)	-14%[39.2 µM]
COC(=O)NC(C(=O)N1CCCC1c1nc2cc(F)c(C3CCC(c4cc5[nH]c(C6CCCN6C(=O)C(NC(=O)OC)C(C)OC)nc5cc4F)N3c3cc(F)c(N4CCC(c5ccc(F)cc5)CC4)c(F)c3)cc2[nH]1)C(C)OC (stereo not drawn)	17%
O=C1CCCC2=C1C(c1[nH]ncc1Cl)NC(=NCCc1ccccc1)N2 (stereo not drawn)	-3%
Cc1ccc(S(=O)(=O)c2nnn3c2nc(N2CCN(c4cccc(C)c4C)CC2)c2ccccc23)cc1C	-22%
Cc1ccc(C)c(CN2C(=O)c3ccccc3S(=O)c3ccc(C(=O)N(C)Cc4ccccc4)cc32)c1 (stereo not drawn)	-12%
CC(C)NS(=O)(=O)c1ccc(OCC(=O)N2CCN(c3cccc(Cl)c3)CC2)cc1	-14%
Cc1noc(C)c1C(=O)N[C@@H]1CN(c2ncccn2)C[C@H]1CN(C)C	-1%
CC(C)(C)OC(=O)NCc1nnc(C(C(=O)OCc2ccccc2)c2ccccc2)s1 (stereo not drawn)	-30%
CNCC(O)c1ccc(OC(=O)C(C)(C)C)c(OC(=O)C(C)(C)C)c1 (stereo not drawn)	8%
